UCH37 DUB inh – blocks the human deubiquitinase UCH37. purified proteasome/UCH37, Ub-AMC cleavage fluorescence. 330,000 tested, 0.33% active. AID 588478. Q9Y5K5. inhibition, % (test concentration not listed);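 active = mean of two replicates above 20%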;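 also: 0% = compound-free wells with enzyme and 100% = wells lacking proteasome; stock transfer was 100 nL into about 20 µL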
Target sequence (Q9Y5K5 whole entry, looked up): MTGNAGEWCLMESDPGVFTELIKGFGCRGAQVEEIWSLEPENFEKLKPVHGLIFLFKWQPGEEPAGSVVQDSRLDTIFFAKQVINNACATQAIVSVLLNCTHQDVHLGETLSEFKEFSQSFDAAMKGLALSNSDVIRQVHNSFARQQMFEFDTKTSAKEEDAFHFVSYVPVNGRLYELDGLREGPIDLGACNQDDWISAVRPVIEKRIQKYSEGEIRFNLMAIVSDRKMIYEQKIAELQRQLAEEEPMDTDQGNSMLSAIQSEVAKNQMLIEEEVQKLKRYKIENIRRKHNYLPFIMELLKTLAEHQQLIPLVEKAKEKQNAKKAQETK
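Schedule: 30 min plus 25 min, room temperature / Material: human UCH37 within purified proteasomes / Technique: AMC fluorescence intensity at 355/460 nm / Buffer or medium: pH 7.4 Tris-HCl (50 mM) with ovalbumin, ATP-MgCl2, DTT / Controls: wells without proteasome as full block, compound-free enzyme plus substrate as uninhibited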
Ecoli growth – blocks Escherichia coli growth. OD600, 23 h; stronger effect = lower value. OD600 absorbance (no concentration beside the values). 330,000 tested, 0.21% active. AID 1053175;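 active = OD600 absorbance below the run mean of sample wells minus 3.6 SD, in any replicate, cut at about 0.56 in these data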;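 also: stock transfer was 300 nL into about 60 µL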
FGF22 binding – binders of recombinant human FGF22 by thermal shift; Q9HCT0; AID 651658; 340,000 tested, 1.5% active; SYPRO orange fluorescence; percent of sucrose octasulfate shift, DMSO zero; calls only at 9.99 µM;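 active = melting point raised past a set limit in the mean and every replicate; three in four hits are not shown here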
Target sequence (Q9HCT0 whole entry, looked up): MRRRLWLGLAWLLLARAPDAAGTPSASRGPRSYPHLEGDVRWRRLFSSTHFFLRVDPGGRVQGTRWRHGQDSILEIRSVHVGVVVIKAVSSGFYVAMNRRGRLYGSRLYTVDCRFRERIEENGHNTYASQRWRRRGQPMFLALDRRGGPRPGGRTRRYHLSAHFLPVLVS
ALR H2O2 inh – human ALR oxidase inhibition via reduced H2O2. AID 485317. 290,000 tested, 3.8% active. P55789. inhibition, % (test concentration not listed). purified ALR, DTT oxidation, H2O2 HRP-luminol luminescence;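 active = mean and each replicate at 75% or more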;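 also: stock transfer was 7.5 nL into about 7.5 µL; 0% = neutral wells and 100% = wells with inactivated enzyme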
Target sequence (P55789 whole entry, looked up): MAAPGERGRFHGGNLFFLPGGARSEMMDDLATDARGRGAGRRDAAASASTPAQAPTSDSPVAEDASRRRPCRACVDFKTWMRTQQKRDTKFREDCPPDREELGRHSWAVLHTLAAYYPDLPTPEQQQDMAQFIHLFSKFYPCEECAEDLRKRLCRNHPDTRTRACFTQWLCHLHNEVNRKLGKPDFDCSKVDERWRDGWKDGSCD
HNF4A DNA FP – change in binding of human HNF4 alpha to DNA | P41235 | HNF4a-FITC DNA binding, fluorescence polarization, 1 h | activity change, % at 10 µM | 360,000 tested, 0.3% active | AID 1224865; in the data active = activity change above about 30%, passing the limit was not always enough;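 also: controls were the assay level and a saturating level of protein; the project sought stronger binding though the title names inhibitors; some compounds called inactive have numbers as strong as hits; positive values seem to mean higher polarization but the record does not say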
rRNA inh HTS – selective bacterial rRNA inhibition in E. coli; E. coli WT GFP vs humanized-ribosome RFP mutants, fluorescence, 24 h; stronger effect = lower value; DMSO median 0, no signal -100; GFP signal change (wild-type ribosome), % (no concentration beside the values); 350,000 tested, 1.6% active; AID 720706;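 active = significant combined selectivity score with lowered wild-type GFP, culture density cut under 30%, mutant RFP and density less affected; inactive = any of these conditions unmet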; also: one replicate is shown; some compounds called inactive have numbers as strong as hits
B2AR ag – human beta-2 adrenergic receptor agonism by FAP. 340,000 tested, 0.43% active. Am2.2-beta2AR cells, FAP receptor internalization, flow cytometry; reference of the scale not given here. response, % (concentration not given with the values). P07550;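 active = response above a set limit, near 3 SD of response in nonfluorescent compounds, cut at about 42% in these data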;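 also: stock transfer was 100 nL into about 11 µL; a reference agonist was the positive control; negative values mostly stem from fluorescent compounds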
rRNA inh HTS OD600 – also measured in rRNA inh HTS; calls as there; OD600 change, %; measured here: OD600 growth;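 optical density of the mix in the first replicate; 0 = DMSO median and -100 = no signal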
rRNA inh HTS RFP – further read-out of rRNA inh HTS, marked with its call; RFP signal change, %; measured here: RFP humanized mutant strains;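 first replicate; 0 = DMSO median and -100 = no signal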
Active calls of the source: *; i = inactive; . = no result given. Some of the compounds tested. The share of hits here may be higher or lower than overall.

#1 Cc1ccc(CN2CCSCC2)c(C)c1
#2 O=C(CN1C(=O)c2ccccc2C1=O)NCc1ccc(C(=O)O)cc1
#3 COc1ccc(CCN(C)C/C=C/c2ccccc2)cc1OC
#4 O=C1CCC[C@@H]2C[C@@]3(C[C@@H]4CCN1[C@H]24)Nc1cc(Cl)ccc1NC3=NC1CCCCC1
#5 Cc1ccc(S(=O)(=O)N(C)C)cc1NC(=S)N1CCN(Cc2ccc3c(c2)OCO3)CC1

| Screen / compound no. | 1 | 2 | 3 | 4 | 5 |
| --- | --- | --- | --- | --- | --- |
| UCH37 DUB inh | 1.6 | . | 1.5 | . | 0.9 |
| Ecoli growth | 0.69 | . | 0.71 | . | 0.67 |
| FGF22 binding | . | i | i | i | i |
| ALR H2O2 inh | -3 | -3 | 35 | . | -17 |
| HNF4A DNA FP | -1.6 | -0.4 | -0.8 | -0.3 | 0.9 |
| rRNA inh HTS | . | 6 | 3 | 1 | -14 |
| rRNA inh HTS OD600 | . | 6 | 6 | 4 | -9 |
| rRNA inh HTS RFP | . | -0.8 | -1.1 | -0.7 | 4.9 |
| B2AR ag | -7 | -2 | -1 | -13 | -5 |

#6 Cc1cc2c(cc1S(=O)(=O)N(C)Cc1ccccc1)OCC(=O)N2
#7 CCOC(=O)c1c(NC(=O)CNCCOC)sc2c1CCCC2
#8 CCOc1ccc(NS(=O)(=O)c2ccc(NC(=S)NC(C)=O)cc2)cc1
#9 COc1ccc(NC(=O)Nc2ccc(C(=O)N3CCOCC3)cc2)cc1
#10 CCc1cc2c(SC(C)C(=O)NC3CCCC3)ncnc2s1 (stereo unspecified)

| Screen / compound no. | 6 | 7 | 8 | 9 | 10 |
| --- | --- | --- | --- | --- | --- |
| UCH37 DUB inh | 5.5 | -1.1 | 3.6 | 3.4 | 1.2 |
| Ecoli growth | 0.79 | 0.74 | 0.7 | 0.73 | 0.67 |
| FGF22 binding | i | . | i | . | i |
| ALR H2O2 inh | -13 | 2 | -13 | -3 | -2 |
| HNF4A DNA FP | -2.5 | -3.5 | -1.0 | -2.3 | 2.3 |
| rRNA inh HTS | -5 | . | 15 | . | -18 |
| rRNA inh HTS OD600 | -8 | . | 7 | . | -22 |
| rRNA inh HTS RFP | 1.3 | . | 3.2 | . | -2.9 |
| B2AR ag | -8 | 3 | 1 | -4 | -9 |

#11 CCN(CC)CCCNc1nc(-n2nc(C)cc2C)nc2sc3c(c12)CC(C)(C)OC3
#12 COC(=O)c1cc(=O)n(Cc2ccc(OC)cc2)c(=NCc2ccc(OC)cc2)s1
#13 Cc1cccc(N2C(=O)C3CCC(c4ccccc4)CC3C2=O)c1 (stereo unspecified)
#14 Cc1ccc(C(=O)Nc2ccc3c4c(cccc24)CC3)cc1[N+](=O)[O-]
#15 COc1cc(CC(=O)OCc2cccc([N+](=O)[O-])c2)cc(OC)c1OC

| Screen / compound no. | 11 | 12 | 13 | 14 | 15 |
| --- | --- | --- | --- | --- | --- |
| UCH37 DUB inh | -59 | -0.6 | 3.4 | 3.6 | 1.9 |
| Ecoli growth | 0.66 | 0.7 | 0.71 | 0.71 | 0.68 |
| FGF22 binding | i | i | i | i | i |
| ALR H2O2 inh | 2 | 40 | . | . | -15 |
| HNF4A DNA FP | -6.8 | -2.8 | 4.5 | -0.1 | -2.4 |
| rRNA inh HTS | 2 | 23 | -29 | . | -6 |
| rRNA inh HTS OD600 | 0 | 12 | -32 | . | 11 |
| rRNA inh HTS RFP | 1.2 | 3.2 | -13 | . | -0.4 |
| B2AR ag | -4 | 3 | -5 | -5 | -1 |

#16 Cc1ccc(NC(CC(=O)c2ccccc2)C(=O)O)cc1Cl (stereo unspecified)
#17 CC1Cc2ccccc2N1C(=O)c1ccc(Br)o1 (stereo unspecified)
#18 Cc1ccc(-n2cnnn2)cc1Cl
#19 CSc1nc2sc3c(c2c(=O)n1C1CCCCC1)CCN(C)C3
#20 Cc1cc(C)n(CC(=O)N/N=C/c2c[nH]c3ccccc23)n1

| Screen / compound no. | 16 | 17 | 18 | 19 | 20 |
| --- | --- | --- | --- | --- | --- |
| UCH37 DUB inh | 2.3 | . | 2.4 | -0.5 | . |
| Ecoli growth | 0.68 | . | 0.63 | 0.72 | . |
| FGF22 binding | i | i | i | . | i |
| ALR H2O2 inh | 3 | . | 2 | 2 | . |
| HNF4A DNA FP | 4.2 | -3.9 | -2.5 | 2.2 | 2.3 |
| rRNA inh HTS | -2 | -10 | 6 | . | 8 |
| rRNA inh HTS OD600 | 2 | -6 | 1 | . | 2 |
| rRNA inh HTS RFP | -1.3 | -2.1 | -1.3 | . | -1.0 |
| B2AR ag | 4 | -5 | -1 | -7 | 1 |

Looked up one by one from the list above:
#16 Cc1ccc(NC(CC(=O)c2ccccc2)C(=O)O)cc1Cl (stereo unspecified)
#20 Cc1cc(C)n(CC(=O)N/N=C/c2c[nH]c3ccccc23)n1

| Screen / compound no. | 16 | 20 |
| --- | --- | --- |
| UCH37 DUB inh | 2.3 | . |
| Ecoli growth | 0.68 | . |
| FGF22 binding | i | i |
| ALR H2O2 inh | 3 | . |
| HNF4A DNA FP | 4.2 | 2.3 |
| rRNA inh HTS | -2 | 8 |
| rRNA inh HTS OD600 | 2 | 2 |
| rRNA inh HTS RFP | -1.3 | -1.0 |
| B2AR ag | 4 | 1 |

13 neighbouring compounds out of the list so far, for reference:
#8 CCOc1ccc(NS(=O)(=O)c2ccc(NC(=S)NC(C)=O)cc2)cc1
#9 COc1ccc(NC(=O)Nc2ccc(C(=O)N3CCOCC3)cc2)cc1
#10 CCc1cc2c(SC(C)C(=O)NC3CCCC3)ncnc2s1 (stereo unspecified)
#11 CCN(CC)CCCNc1nc(-n2nc(C)cc2C)nc2sc3c(c12)CC(C)(C)OC3
#12 COC(=O)c1cc(=O)n(Cc2ccc(OC)cc2)c(=NCc2ccc(OC)cc2)s1
#13 Cc1cccc(N2C(=O)C3CCC(c4ccccc4)CC3C2=O)c1 (stereo unspecified)
#14 Cc1ccc(C(=O)Nc2ccc3c4c(cccc24)CC3)cc1[N+](=O)[O-]

| Screen / compound no. | 8 | 9 | 10 | 11 | 12 | 13 | 14 |
| --- | --- | --- | --- | --- | --- | --- | --- |
| UCH37 DUB inh | 3.6 | 3.4 | 1.2 | -59 | -0.6 | 3.4 | 3.6 |
| Ecoli growth | 0.7 | 0.73 | 0.67 | 0.66 | 0.7 | 0.71 | 0.71 |
| FGF22 binding | i | . | i | i | i | i | i |
| ALR H2O2 inh | -13 | -3 | -2 | 2 | 40 | . | . |
| HNF4A DNA FP | -1.0 | -2.3 | 2.3 | -6.8 | -2.8 | 4.5 | -0.1 |
| rRNA inh HTS | 15 | . | -18 | 2 | 23 | -29 | . |
| rRNA inh HTS OD600 | 7 | . | -22 | 0 | 12 | -32 | . |
| rRNA inh HTS RFP | 3.2 | . | -2.9 | 1.2 | 3.2 | -13 | . |
| B2AR ag | 1 | -4 | -9 | -4 | 3 | -5 | -5 |

#15 COc1cc(CC(=O)OCc2cccc([N+](=O)[O-])c2)cc(OC)c1OC
#16 Cc1ccc(NC(CC(=O)c2ccccc2)C(=O)O)cc1Cl (stereo unspecified)
#17 CC1Cc2ccccc2N1C(=O)c1ccc(Br)o1 (stereo unspecified)
#18 Cc1ccc(-n2cnnn2)cc1Cl
#19 CSc1nc2sc3c(c2c(=O)n1C1CCCCC1)CCN(C)C3
#20 Cc1cc(C)n(CC(=O)N/N=C/c2c[nH]c3ccccc23)n1

| Screen / compound no. | 15 | 16 | 17 | 18 | 19 | 20 |
| --- | --- | --- | --- | --- | --- | --- |
| UCH37 DUB inh | 1.9 | 2.3 | . | 2.4 | -0.5 | . |
| Ecoli growth | 0.68 | 0.68 | . | 0.63 | 0.72 | . |
| FGF22 binding | i | i | i | i | . | i |
| ALR H2O2 inh | -15 | 3 | . | 2 | 2 | . |
| HNF4A DNA FP | -2.4 | 4.2 | -3.9 | -2.5 | 2.2 | 2.3 |
| rRNA inh HTS | -6 | -2 | -10 | 6 | . | 8 |
| rRNA inh HTS OD600 | 11 | 2 | -6 | 1 | . | 2 |
| rRNA inh HTS RFP | -0.4 | -1.3 | -2.1 | -1.3 | . | -1.0 |
| B2AR ag | -1 | 4 | -5 | -1 | -7 | 1 |

(more compounds)
#21 Cc1cc2ncn(C(=O)c3ccc(F)cc3)c2cc1C
#22 NC(=O)C1CCN(CC(=O)NC(=O)NC2CCCC2)CC1
#23 COc1cccc(-c2nc(CS(=O)(=O)CC(=O)NCCc3ccc(C)cc3)c(C)o2)c1
#24 Cc1oc2c(c1C(=O)NCCCC(=O)O)CCCC2
#25 Cn1ncc(Br)c1C(=O)NC1CCCCC1

| Screen / compound no. | 21 | 22 | 23 | 24 | 25 |
| --- | --- | --- | --- | --- | --- |
| UCH37 DUB inh | 0.3 | 0.2 | 1.8 | 3.2 | 4.4 |
| Ecoli growth | 0.64 | 0.7 | 0.71 | 0.71 | 0.69 |
| FGF22 binding | i | i | i | . | i |
| ALR H2O2 inh | 98* | 1 | -32 | 4 | -114 |
| HNF4A DNA FP | 0.9 | 1.9 | 5.2 | -1.8 | -2.4 |
| rRNA inh HTS | 15 | 9 | -4 | . | 3 |
| rRNA inh HTS OD600 | 9 | 10 | -4 | . | 3 |
| rRNA inh HTS RFP | 3.5 | -2.7 | -1.3 | . | 0.5 |
| B2AR ag | -4 | 1 | -2 | 4 | 15 |

#26 Cc1cc(Cl)cc(C)c1OCCNCc1ccccc1
#27 CC1(C(=O)NS(=O)(=O)c2cccs2)CCN1C(=O)C1(c2ccc(Cl)cc2)CCC1 (stereo unspecified)
#28 CCOC(=O)N1CCN(C(=O)COC(=O)c2cc(C)ccc2C)CC1
#29 CC(=O)c1cc2c(cc1NS(=O)(=O)c1ccc3c(c1)OCCO3)OCO2
#30 NC(=O)c1c(NC(=O)C(=O)NCCCN2CCOCC2)sc2c1CCCC2
#31 Cc1ccccc1-c1ccc(=O)n(CC(=O)Nc2ccc(S(=O)(=O)N(C)C)cc2)n1
#32 Cc1cc(SCC#N)nc2ccccc12

| Screen / compound no. | 26 | 27 | 28 | 29 | 30 | 31 | 32 |
| --- | --- | --- | --- | --- | --- | --- | --- |
| UCH37 DUB inh | 6.8 | . | 0.9 | 1.9 | 2.1 | 1.8 | 1.8 |
| Ecoli growth | 0.61 | . | 0.64 | 0.72 | 0.67 | 0.75 | 0.69 |
| FGF22 binding | i | i | i | . | i | i | . |
| ALR H2O2 inh | . | . | -3 | 0 | 7 | -15 | -3 |
| HNF4A DNA FP | 2.7 | -5.1 | -1.0 | 2.2 | 1.9 | -1.9 | 3.2 |
| rRNA inh HTS | -43 | -33* | 0 | . | -1 | -29 | 9 |
| rRNA inh HTS OD600 | -48 | 0.0* | -10 | . | -2 | -24 | 15 |
| rRNA inh HTS RFP | -11 | 5.9* | -1.6 | . | -0.3 | -7.0 | 4.3 |
| B2AR ag | 6 | . | 1 | 10 | -12 | 2 | -4 |
